Compound activity (PubChem BioAssay)
CSC inhib: cancer stem cell inhibition; cancer stem cell-like cells viability, luminescence; inhibition, % at 7.5 µM; 300,000 tested, 1.1% active;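 active = mean at 75% or more and at least half the replicates too; inconclusive = mean and replicates disagree; tested in HMLE shEcad cells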;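 also: 0% = median of negative and 100% = median of positive control wells; the first replicate is given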
Env fusion inh: blocks HIV Env-driven cell-cell fusion | inhibition, % at 12.3 µM | 360,000 tested, 1.1% active | HeLa-JRFL Env/CEM21 cell fusion, luciferase | AID 651610;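 active = mean replicate inhibition score of at least 50 and every replicate individually at or above 50; inconclusive = only one of the two criteria met; inactive = mean below 50 and not all replicates reaching 50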;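 also: 0% = plate neutral controls and 100% = maraviroc near 300 nM; one replicate is shown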
Rce1 inhib: blocks yeast Ras-converting enzyme | Q03530 | yeast membranes, quenched prenylated peptide cleavage fluorescence | calls only | 290,000 tested, 0.27% active;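 active = fall in fluorescence gain of 50% or more versus controls, with final raw signal at or below 3038400; inconclusive = same 50% fall but final raw signal above 3038400; inactive = fall in fluorescence gain under 50%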;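 also: plate controls were neutral control wells for no effect and wells lacking membranes for full effect; tested at 10 µM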
Yeast UUG start: yeast start codon fidelity modulation. 350,000 tested, 0.13% active. activity score, % at 18.7 µM. S. cerevisiae UUG-firefly luciferase reporter, luminescence/redox ratio;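 active = replicate mean at a twofold rise or more, about +100% in these data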;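 also: firefly luciferase made from a UUG start codon reports start codon fidelity; reporter light over untreated wells divided by growth signal over untreated wells; some hits fall short of that in this replicate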
MT1-MMP act inh: inhibitors of human MT1-MMP activation; P50281; HT1080 RFP-PRO-GFP cells, GFP/RFP ratio fluorescence, overnight; percent of plate control window, DMSO zero; GFP/RFP ratio change, % at 20 µM; 360,000 tested, 0.061% active;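 active = GFP/RFP ratio change of at least 30% with cell ATP level not reduced by more than half and red fluorescence within 50% of control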; also: strong numbers were not always called active
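Read-out: GFP/RFP fluorescence ratio; Test system: RFP-PRO-GFP reporter HT1080 cells; Compound dosing: single-point 20 µM compound, 1% DMSO; Times: overnight compound exposure at 37 °C.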
PABP FP inh: blocks human PABP binding to poly(A) RNA; P11940; fluorescence polarization; inhibition, % at 35 µM; 290,000 tested, 1% active;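 active = 50% or more with normal probe brightness, or confirmed in later tests; inconclusive = above 50% with abnormal brightness, or retests that disagree; inactive = below 50% or failed in later tests; about a fifth of its hits are not listed in these tables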;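 also: calls also rest on retests at 20 µM and on dose response follow-up; controls were probe without protein and protein plus probe with vehicle; some compounds called inactive have numbers as strong as hits; many hits fall short of the cut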
Target sequence (P11940 whole entry, looked up): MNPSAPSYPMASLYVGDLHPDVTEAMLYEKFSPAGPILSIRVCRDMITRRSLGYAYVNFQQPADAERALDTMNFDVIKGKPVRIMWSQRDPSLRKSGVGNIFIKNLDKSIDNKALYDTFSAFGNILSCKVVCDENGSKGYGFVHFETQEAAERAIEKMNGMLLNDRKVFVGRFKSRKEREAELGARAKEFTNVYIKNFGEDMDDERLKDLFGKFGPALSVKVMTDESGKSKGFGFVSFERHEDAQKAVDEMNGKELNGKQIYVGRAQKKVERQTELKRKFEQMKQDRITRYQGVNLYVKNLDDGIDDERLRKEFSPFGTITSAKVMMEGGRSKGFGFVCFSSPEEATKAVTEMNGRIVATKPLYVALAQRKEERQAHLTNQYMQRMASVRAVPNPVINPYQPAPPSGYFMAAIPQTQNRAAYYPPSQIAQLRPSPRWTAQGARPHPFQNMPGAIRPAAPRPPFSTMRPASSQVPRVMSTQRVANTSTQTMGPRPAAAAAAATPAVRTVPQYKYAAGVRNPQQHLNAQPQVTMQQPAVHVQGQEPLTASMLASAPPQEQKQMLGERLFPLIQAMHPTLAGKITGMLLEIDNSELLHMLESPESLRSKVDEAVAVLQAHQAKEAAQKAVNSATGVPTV
eIF4H FP inh: inhibitors of RNA binding by human eIF4H. eIF4H fluorescence polarization binding assay. inhibition, % at 35 µM. 290,000 tested, 0.94% active;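 active = 50% or more with normal probe brightness, or confirmed in later tests; inconclusive = above 50% with abnormal brightness, or retests that disagree; inactive = below 50% or failed in later tests; about a fifth of its hits are not listed in these tables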;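 also: calls also rest on retests at 20 µM and on dose response follow-up; 0% = protein and probe with vehicle and 100% = probe without protein; strong numbers were not always called active; many hits fall short of the cut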
MT1-MMP act inh RFP: further read-out of MT1-MMP act inh, marked with its call; RFP signal change, %; measured here: RFP expression control read;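 0 = vehicle wells; hits needed this value within 50% of zero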
The depositor's hits bear a star; i = inactive; u = inconclusive; x = not tested or not shown.

SMILES	CSC inhib	Env fusion inh	Rce1 inhib	Yeast UUG start	MT1-MMP act inh	MT1-MMP act inh RFP	PABP FP inh	eIF4H FP inh
COc1cc(/C=C2/SC(=S)N(CC(=O)Nc3cccnc3)C2=O)cc(OC)c1OC	10	-58	i	x	17	9	0	-6
COc1ccc(NC(=S)N2CCCC(c3nc4ccc(C)cc4[nH]3)C2)cc1 (stereo unspecified)	7	7	i	x	3	2	-12	-9
COc1ccc(CCCC(=O)NC2CCCCC2)cc1	x	-32	i	5	x	x	-3	5
CCOc1cc(C(=S)N2CCOCC2)ccc1OC(=O)c1ccccc1	-11	-3	x	4	4	4	-4	-8
Cc1c(CC(=O)N2CCN(C(=O)C3COc4ccccc4O3)CC2)c(=O)oc2cc(O)c(Cl)cc12 (stereo unspecified)	-6	0	u	-14	-5	0	11	21
FC(F)(F)c1cccc(Oc2cc(C(F)(F)F)nc(-c3ccccn3)n2)c1	-7	32	i	-23	-2	0	1	9
S=C(Nc1ccc2c(c1)OCO2)N1CCCC1	-17	-8	x	x	-2	3	-4	0
Cc1nc2sc(-c3ccccc3)cc2c(=O)n1N	39	-12	i	-37	15	1	-5	-10
Cc1ccc(C(=O)COC(=O)c2cnccn2)cc1[N+](=O)[O-]	-6	-25	i	-14	0	2	0	6
CC(C)(C)NC(=O)c1ccc2c(c1)N(CC(=O)N1CCN(c3ccc(F)cc3)CC1)C(=O)C(C)(C)O2	4	-77	i	3	3	5	7	3
CCCCc1nc2ccccc2c(C(=O)O)c1C	-12	-25	i	-6	-3	0	38	-9
Cn1cc(CN2CCC(n3nccc3NC(=O)CCOc3ccccc3)CC2)cn1	-4	-5	i	3	-1	-1	6	2
CCc1cccc2c3c([nH]c12)C(CC)(CC(=O)O)OCC3 (stereo unspecified)	4	x	i	-6	3	2	-5	3
CC1CN(C(=S)NC(=O)c2cccc([N+](=O)[O-])c2)CC(C)O1 (stereo unspecified)	-8	x	i	-26	3	2	-6	-6
CCc1ccc(OCC(=O)Nc2ccc(S(=O)(=O)Nc3cc(C)on3)cc2)c(Br)c1	-2	7	i	-8	-4	-1	9	-5
COCCCNC(=S)N1CCC(NC(=O)c2ccco2)CC1	8	4	i	-5	0	7	8	4
Cc1ccc(S(=O)(=O)NCC(=O)OCC(=O)NCCc2ccccc2)cc1	8	0	i	-15	4	3	x	x
c1ccc(-c2nnc(-c3ccncc3)o2)cc1	-7	x	i	-20	-3	-3	0	-12
CNC(=O)c1c(NC(=O)c2ccco2)sc2c1CCCC2	-5	x	i	-12	-3	-1	1	-8
CCCNC(=O)C1(C)CCCN(C(=O)c2ccc(F)c(Cl)c2)C1 (stereo unspecified)	x	-11	x	-15	3	3	x	x
O=C(/C=C/c1ccccc1)NCc1cccnc1	5	-16	x	x	-3	0	6	3
N#C/C(=C/c1ccc(N2CCOCC2)o1)c1nc2ccccc2[nH]1	3	x	x	-13	-91	37	-11	u
CC1(c2ccccc2)NC(=O)N(CC(=O)Nc2nnc(C3CC3)s2)C1=O (stereo unspecified)	-7	3	i	-1	-1	1	12	-8
CCOC(=O)c1cc(-c2cc3ccccc3o2)n[nH]1	8	-35	i	-7	-5	3	-13	-5
Cc1cccc(CN2CCC(n3nccc3NC(=O)CCCc3ccccc3)CC2)n1	-1	x	i	-1	-4	0	9	-8
CCN(c1ccccc1)S(=O)(=O)c1ccc(C(=O)N2CC(C)CC(C)C2)cc1 (stereo unspecified)	-1	6	i	3	-6	-10	x	x
CCCc1cc(C(=O)NCc2cccnc2)no1	-5	i	i	-15	6	5	8	3
CCCCNC(=O)c1onc(CSc2ccc(F)c(F)c2)c1C(=O)O	7	-5	i	-2	7	1	-7	-2
COc1ccc(C(=O)NN2C(=O)C3C(c4ccccc4)C=CC(c4ccccc4)C3C2=O)cc1 (stereo unspecified)	-6	x	i	3	-4	-1	11	-11
COc1ccc(NC(=O)c2nc3ccccc3s2)cc1	10	-45	i	x	-1	-4	11	-3
Cc1ccc2nc(NC(=O)c3cccs3)sc2c1	14	-477	x	-27	-6	-9	-7	-7
O=C(Nc1ccc(OCC(=O)N2CCOCC2)cc1)Nc1cccc(Cl)c1	-10	-6	i	x	2	1	2	-17
Cc1cc(C)c2nc(C)cc(Nc3ccc(C(=O)N4CCOCC4)cc3)c2c1	12	-13	i	x	0	0	-1	3
CC1CN(C(=S)Nc2cccc([N+](=O)[O-])c2)CC(C)O1 (stereo unspecified)	12	0	i	-20	0	0	-7	-5
CCC(C)NC(=O)c1cnn2c(C)c3c(nc12)CCCC3 (stereo unspecified)	x	3	i	9	-2	2	-3	5
CN(CC(=O)C(C(N)=O)c1ccccc1)c1ccccc1 (stereo unspecified)	x	-51	x	-9	-2	-2	x	x
C=CCN1C(=O)C2(OCCO2)c2cc(C)ccc21	-11	2	i	-22	-2	0	-3	-2
COc1ccc(CCNC(=O)[C@@H](NC(=O)c2ccccc2F)C(C)C)cc1OC	-2	9	i	10	-2	4	-12	-1
CC1(C)CCCC2=C1CC1C(=O)N(c3ccccc3)C(=O)C1C2 (stereo unspecified)	2	x	i	14	7	-2	-4	0
Cc1ccccc1COC[C@H](CC(C)C)N1CCN(C(=O)c2cccc(C(F)(F)F)c2)CCC1=O	-10	72*	i	-9	0	-4	-2	-6
CS(=O)(=O)Nc1cccc(C2=NN(C(=O)c3ccc(F)cc3)C(c3cccs3)C2)c1 (stereo unspecified)	-1	23	i	-3	-2	-6	-1	-10
Cc1nc(N/N=C/c2ccc(O)cc2O)cc(N2CCOCC2)n1	33	-3	i	-10	8	3	-16	12
COC(=O)[C@@]1(C)[C@H]2C(=O)N(C)C(=O)[C@H]2[C@H]2CN=C(SCc3ccc(Cl)cc3)N21	x	6	x	-14	0	2	x	x
Nc1nc(SCC(=O)Nc2ccccc2C(F)(F)F)[nH]c(=O)c1-c1ccccc1	x	19	i	x	2	3	-9	3
Cc1ccc(NC(=O)CCNS(=O)(=O)c2ccc3[nH]c(=O)oc3c2)cc1	0	-6	i	6	2	1	-1	-9

Sorted by value in MT1-MMP act inh (falling): 3 from the list above
canonical_smiles	MT1-MMP act inh
Cc1nc(N/N=C/c2ccc(O)cc2O)cc(N2CCOCC2)n1	8
Cc1ccc(NC(=O)CCNS(=O)(=O)c2ccc3[nH]c(=O)oc3c2)cc1	2
Cc1ccccc1COC[C@H](CC(C)C)N1CCN(C(=O)c2cccc(C(F)(F)F)c2)CCC1=O	0

Further records:
SMILES	CSC inhib	Env fusion inh	Rce1 inhib	Yeast UUG start	MT1-MMP act inh	MT1-MMP act inh RFP	PABP FP inh	eIF4H FP inh
Cc1cnc(N=Nc2ccccc2)[nH]1	x	9	x	-20	0	3	x	x
O=C(NCCN1CCOCC1)C(=O)NCC1CCCO1 (stereo unspecified)	-13	x	i	x	-3	0	12	5
COc1cccc(-n2c(-c3cccc(S(=O)(=O)N(C)C)c3)n[nH]c2=S)c1	-9	20	i	x	4	1	-3	-13
C[C@H]1CN([C@@H](C)CO)C(=O)c2cc(Br)cnc2O[C@@H]1CN(C)C(=O)c1ccncc1	x	9	x	5	1	5	x	x
CCOC(=O)c1cc2cc(-c3c(C(=O)OCC)oc4cc(O)cc(O)c4c3=O)ccc2o1	-13	-17	x	-4	5	-6	-14	-13
O=C(CNc1cc(S(=O)(=O)N2CCOCC2)ccc1N1CCCC1)NCc1ccco1	-2	17	i	9	1	5	u	10
O=C(CNC(=O)c1ccco1)OCc1c(F)cccc1Cl	-19	-5	i	-36	0	4	4	-8
COc1ccc(C2=Nn3c(nnc3-c3ccco3)SC2)cc1OC	0	-40	i	-23	6	1	11	-4
COc1ccc(N2CCN(CCNC(=O)C3CCN(S(=O)(=O)c4cccs4)CC3)CC2)cc1	x	x	i	-3	2	-6	-1	-11
COc1c(Cl)cc(C(=O)NN)cc1Cl	11	0	i	x	-5	-2	-4	-3
Cc1cccc(N2CCN(C(=O)NCc3ccc(Cl)cc3)CC2)c1	35	-56	i	-17	x	x	12	3
COc1cc(C(=O)NCCc2ccc(F)cc2)ccc1OCC(=O)N1CCOCC1	-4	x	i	x	4	0	x	x
c1ccc(CNc2ccc(CNc3ncn[nH]3)cc2)cc1	-9	u	i	-7	-3	1	-5	-8
COc1ccc(C(O)c2nccn2C)cc1 (stereo unspecified)	1	-71	i	-6	0	2	-5	4
O=C(NC(=S)N1CCN(c2c(Cl)cccc2[N+](=O)[O-])CC1)c1cccs1	58	x	i	-30	3	-2	4	11
Cc1ccc(OCC(=O)Nc2ccc3c(c2)nc(CCN2CCC(C)CC2)n3C)cc1	3	0	i	-13	2	0	4	-5
Cc1ccc(S(=O)(=O)Nc2cccc(C(=O)NCc3ccc(S(N)(=O)=O)cc3)c2)cc1	-17	-2	i	1	1	0	3	-8
CC1(C(=O)NC2CCCCCCC2)CCC(=O)N1Cc1cccs1 (stereo unspecified)	x	-2	i	-8	8	1	-5	-12
CN(C)c1ccc(/C=C/C(=O)c2c(O)c3ccccc3oc2=O)cc1	-5	-4	i	-18	6	57	u	u
CCOC(=O)C1=C(c2ccccc2)NC(=O)NC1c1ccsc1 (stereo unspecified)	-12	-3	i	-6	3	2	25	-4
CC(=O)c1ccc(OCCCC(=O)Nc2ccc(C)c(S(=O)(=O)N3CCCCC3)c2)cc1	x	23	x	-11	-6	-32	x	x
Cc1c2cnn(CC(=O)N3CCOCC3)c(=O)c2c(C)n1Cc1ccc(F)cc1	x	2	x	-9	4	-1	x	x
CC(C)c1nnc(NC(=O)CN(C)S(=O)(=O)c2ccc3c(c2)OCCO3)s1	x	x	i	-19	4	2	-2	-8
NC(=O)c1ncn([C@@H]2O[C@H](CNCc3cc(Cl)ccc3OCc3ccc(Cl)cc3)[C@@H](O)[C@H]2O)n1	x	-7	x	-8	0	-2	x	x
O=C(O)c1cccnc1SC1CC(=O)N(c2ccc(OC(F)F)cc2)C1=O (stereo unspecified)	-7	13	i	0	-3	2	3	-1
CC(=O)c1ccc(NC(=O)NCc2ccc(F)cc2)cc1	-12	-98	i	x	1	-1	-6	-2
C=CC(=O)OCCOCCOCCOCCOC(=O)C=C	u	x	x	-7	1	7	x	x
COc1cccc(C(=O)Nc2ccccc2OC(F)(F)F)c1	9	5	i	-11	-5	1	3	-8
CCCCc1c(O)nc(SCC(=O)NC(C)(C)C)n(-c2ccccc2C)c1=O	4	-162	i	-12	6	5	4	-1
O=C(O)c1ccc(NS(=O)(=O)c2cccc(C(=O)Nc3ccc(Br)cc3)c2)cc1	-21	2	i	1	-2	-1	9	3
COc1ccc(NC(=O)c2nc(SC)ncc2Cl)cc1	-4	-3	i	x	-4	-4	6	3
Cc1ccsc1C(=O)N1CCC(N2CCC(C(=O)NCC3CCCO3)CC2)CC1 (stereo unspecified)	-7	-4	i	x	7	11	2	18
CN(C)C(CNC(=O)/C=C/c1cccc(Cl)c1)c1ccccc1 (stereo unspecified)	6	-21	i	x	3	-5	8	-6
Cc1noc(C)c1C(=O)N1CCCc2ccccc21	x	x	i	x	-1	3	1	4
Cc1ccc(CSCc2nc3ccccc3[nH]2)cc1	x	1	i	x	3	-9	1	-7
O=C(O)COc1ccc(NC(=O)C(c2ccccc2)c2ccccc2)cc1	-11	-8	i	-3	-5	3	7	4
COc1ccc(NC(=O)CSc2nc(C)cc(C(F)(F)F)n2)cc1	9	x	i	-13	-2	-1	-3	10
CCOc1cccc(-c2nc3cc(C)ccc3o2)c1	-28	x	i	0	9	9	2	-6
